MLL AF4-AF9 inh: MLL-AF4/AF9 protein interaction inhibition | 350,000 compounds, 0.47% hits | AID 651704 | P42568 | inhibition, % at 10 µM | AlphaScreen, biotin-AF4 peptide binding to FLAG-AF9;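 active means every replicate reaching a set inhibition limit, whatever the replicate mean, cut at about 25% in these data; inconclusive means mean inhibition reaches that limit but some replicates miss it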;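 further: 0% = plate neutral control median and 100% = total signal loss; the record names both 10 and 1 µM as test concentration; the first replicate is given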
Target sequence (P42568 whole entry, looked up): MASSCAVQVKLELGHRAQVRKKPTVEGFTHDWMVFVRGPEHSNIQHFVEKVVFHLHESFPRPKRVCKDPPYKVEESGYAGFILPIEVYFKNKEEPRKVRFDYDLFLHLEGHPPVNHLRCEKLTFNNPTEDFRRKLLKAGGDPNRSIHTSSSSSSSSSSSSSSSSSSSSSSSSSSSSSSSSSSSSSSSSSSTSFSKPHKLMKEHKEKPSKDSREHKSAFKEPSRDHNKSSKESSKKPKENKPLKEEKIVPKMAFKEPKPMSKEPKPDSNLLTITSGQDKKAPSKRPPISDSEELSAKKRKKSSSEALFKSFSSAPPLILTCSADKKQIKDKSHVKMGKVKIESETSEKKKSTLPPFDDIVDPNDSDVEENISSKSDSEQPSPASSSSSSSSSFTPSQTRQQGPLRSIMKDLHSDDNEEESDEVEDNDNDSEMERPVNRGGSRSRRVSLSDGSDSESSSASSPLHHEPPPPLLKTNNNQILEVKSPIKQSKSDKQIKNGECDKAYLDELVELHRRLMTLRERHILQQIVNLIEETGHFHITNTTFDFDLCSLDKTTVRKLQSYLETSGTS
Beta apoptosis: beta cell apoptosis inhibition; 300,000 compounds, 0.8% hits; protection from apoptosis, % (no concentration beside the values); INS-1E cytokine-induced death, ATP luminescence, 48 h; percent of positive-control rescue, neutral wells zero;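 active means all replicates at 75% or more, or half of them and the mean; inconclusive means half reach 75% but not the mean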;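 further: 0% = cytokine-treated negative control wells and 100% = positive control rescue; higher means more ATP so stronger rescue from cytokine killing; wells of about 40 µL received 100 nL stock; the first replicate is given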
T cruzi repl: blocks replication of Trypanosoma cruzi | inhibition, % (concentration not given with the values) | T. cruzi beta-gal in NIH3T3, luminescence, 90 h | 300,000 compounds, 1.4% hits;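 active means mean inhibition across valid replicates above about 55%, limit read from the data; inconclusive means mean below that limit but half or more replicates reach it; inactive means mean below it, under half of replicates reach it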;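 further: signal also drops with host cell toxicity which is not excluded here; 0% = plate median of DMSO wells and 100% = zero luminescence signal; higher percent means less beta-gal luminescence so fewer parasites; stock transfer was 50 nL into about 50 µL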
Calb FLC: C. albicans growth modulation with fluconazole. C. albicans CaCi-2 (fluconazole-resistant clinical isolate) + fluconazole, Alamar Blue growth, 48 h. growth inhibition, % (no concentration beside the values). 300,000 compounds, 0.57% hits. AID 1979;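 active means most replicates above 75%; inconclusive means exactly half above 75%; inactive means most below 75%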;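 further: all wells also contain fluconazole at 8 µg/ml as a sub-toxic cotreatment; 0% = median of DMSO wells and 100% = median of geldanamycin control wells; wells of about 8 µL received 7.5 nL stock; the first replicate is given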
Ecoli rRNA inh: selective bacterial rRNA inhibition in E. coli; E. coli WT GFP vs humanized-ribosome RFP mutants, fluorescence, 24 h; stronger effect = lower value; DMSO median 0, no signal -100; 350,000 compounds, 1.6% hits; GFP signal change (wild-type ribosome), % (no concentration beside the values); AID 720706;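 active means significant combined selectivity score with lowered wild-type GFP, culture density cut under 30%, mutant RFP and density less affected; inactive means any of these conditions unmet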; further: one replicate is shown; some compounds called inactive have numbers as strong as hits
Vif A3G: HIV-1 Vif–A3G interaction blockers – biochemical, TR-FRET, GST-Vif 1-94, biotin-A3G peptide, dose response retest, primary screen (AID 1117319). TR-FRET GST-Vif / biotin-A3G peptide binding; higher % means a stronger effect; test concentration not given here; strong numbers were not always called active. inhibition, %; hits with a dose series show IC50 in µM. 260,000 compounds, 0.57% hits;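 active means above the screen mean plus three standard deviations and confirmed in dose response; inconclusive means results disagree or hit not tested in dose response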;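 further: Vif residues 1-94 fused to GST binding biotinylated APOBEC3G peptide 110-148; 0% = full assay without inhibitor and 100% = GST in place of GST-Vif; retest series ran down from 100 µM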
RanGTP-Impb inh: inhibitors of RanGTP-importin-beta interaction, primary screen, biochemical, FRET, CFP-Ran, YFP-importin-beta, homogeneous. cell-free CFP-Ran/YFP-importin-beta FRET ratio. inhibition, % (test concentration not listed). 300,000 compounds, 1.1% hits;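 active means most replicates above 15%; inconclusive means exactly half above 15%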;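 further: 0% = DMSO wells and 100% = Ran loaded with GDP instead of GTP; wells of about 40 µL received 100 nL stock; the first replicate is given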
Bfl-1 A1 inh: inhibitors of the anti-apoptotic protein A1, read as caspase activation. 330,000 compounds, 0.066% hits. MEF A1-2A-BIM cells, Caspase-Glo 3/7 luminescence, 3 h; percent of clofoctol response, vehicle zero. AID 2462. caspase activation, % (no concentration beside the values);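 active means over half of replicate activation scores above 10%, or exactly half above 10 with the replicate mean above 10; inconclusive means replicate mean below 10 yet half the replicates above 10; inactive means over half of replicates below 10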;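 further: wells of about 30 µL received 50 nL stock; many hits fall short of the cut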
Ecoli rRNA inh OD600: second read-out of Ecoli rRNA inh, no call of its own (marks repeat the call); OD600 change, %; measured here: OD600 growth;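 optical density of the mix in the first replicate; 0 = DMSO median and -100 = no signal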
Ecoli rRNA inh RFP: second read-out of Ecoli rRNA inh, no call of its own (marks repeat the call); RFP signal change, %; measured here: RFP humanized mutant strains;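 first replicate; 0 = DMSO median and -100 = no signal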
Active calls of the source: *; ? = inconclusive; . = no result given.

SMILES	MLL AF4-AF9 inh	Beta apoptosis	T cruzi repl	Calb FLC	Ecoli rRNA inh	Ecoli rRNA inh OD600	Ecoli rRNA inh RFP	Vif A3G	RanGTP-Impb inh	Bfl-1 A1 inh
NS(=O)(=O)c1ccc(CNC(=O)c2ccc(S(=O)(=O)C(F)F)cc2)cc1	-0.4	0	15	3	12	7	2.7	8%	-1.5	0.4
Cc1ccc(NC(=O)CNC2CCS(=O)(=O)C2)cc1C (stereo unspecified)	-5.2	.	-13	-5	22	4	0.4	4%	5.0	.
O=C(NC(Nc1ccc(F)cc1)(C(F)(F)F)C(F)(F)F)c1cccnc1	-0.2	3	-1	-6	0	3	1.3	0%	-0.1	0.2
Cc1cc(C)c(C#N)c(SCc2cn3c(C)cccc3n2)n1	.	-22	4	-2	.	.	.	.	0.2	0.3
CCCn1c(N)nc2ccccc21	.	-4	-9	55	.	.	.	-2%	?	-1.1
Cn1ncc(N=Cc2ccc([N+](=O)[O-])cc2)c1C(=O)Nc1ccccc1	-0.8	.	-5	2	4	0	-2.3	15%	6.1	-0.5
COc1ccc2c3c([nH]c2c1)C(C)N(CCC(=O)NN)CC3 (stereo unspecified)	10.0	-6	-8	-5	15	16	5.2	1%	-14	0.7
Cc1nn(Cc2ccc(Cl)cc2Cl)c(C)c1NC(=O)C1C2CCC(O2)C1C(=O)O (stereo unspecified)	.	-3	12	-13	.	.	.	-6%	4.6	2.3
Cc1cc2c(cc1S(=O)(=O)Nc1cccc(C)c1C)OCC(=O)N2	5.7	-1	0	2	-6	-15	0.8	.	3.7	0.0
CCOC(=O)N1CCN(C(=O)CN(Cc2ccc(Cl)cc2)S(=O)(=O)c2ccccc2)CC1	.	0	10	-1	.	.	.	0%	-0.7	1.6
C=CCN(c1ccccc1)S(=O)(=O)c1ccc(Cl)c(C(=O)OCC(=O)N(C)C2CCS(=O)(=O)C2)c1 (stereo unspecified)	-0.5	-1	-8	30	-32	-41	-4.8	?	-0.6	0.1
CCC(=O)Nc1ccc(C(=O)Nc2cc(C)on2)cc1	.	-5	1	-3	.	.	.	-4%	2.4	0.2
Cc1ccc(SCC(=O)N(C)CC(=O)Nc2cccc(F)c2)cc1	0.1	-7	-12	3	-12	-16	-1.6	1%	-5.2	0.4
Cc1ccccc1OCC(=O)OCn1nnc2ccccc2c1=O	-1.4	-3	7	1	9	4	2.7	19%	-3.2	-1.0
O=C(COc1ccccc1)Nc1nc2ccccc2[nH]1	.	0	-1	-3	.	.	.	0%	6.1	-0.1
Cc1ccc(NS(=O)(=O)c2ccc(-n3cccn3)cc2)cc1F	-4.7	-1	5	29	-2	-1	3.6	-2%	1.6	2.3
CCn1cc(CN(C)S(=O)(=O)c2ccc3ccccc3c2)c(C)n1	.	52	-32	-2	.	.	.	-9%	-2.2	0.0
COc1ccc(-c2nn(-c3ccccc3)cc2C(=O)Nc2cccc(C(=O)O)c2)cc1[N+](=O)[O-]	1.8	-7	-10	10	7	6	2.3	-6%	-0.8	-1.1
COc1cccc(C2C(C(N)=O)=C(C)Nc3nc(CCCO)nn32)c1 (stereo unspecified)	0.1	-4	-8	-2	11	12	-3.1	3%	2.3	-0.2
COc1ccc(CCN2C(=O)C3C(C2=O)C2C=CC3C23CC3)cc1OC (stereo unspecified)	-0.5	.	-6	?	-21	-16	-1.2	.	1.4	-0.3
CCS(=O)(=O)N1CCC(C(=O)Nc2ccc(C(C)=O)cc2)CC1	-1.6	-1	-19	1	13	5	-1.7	.	3.9	-0.4
O=S(=O)(Nc1ccon1)c1ccc(Br)s1	-4.9	-3	-8	-2	14	11	3.1	-6%	-1.4	0.3
COc1ccc(N(C)C(=O)CN(C)S(=O)(=O)c2ccc3c(c2)c(=O)n(C)c(=O)n3C)c(OC)c1	-0.8	-5	11	4	0	1	-1.6	.	-1.0	0.9
O=C(O)c1ccc(Cl)c(NC(=S)NC(=O)c2ccccc2[N+](=O)[O-])c1	-3.9	-5	-22	28	2	0	-0.7	-9%	4.0	1.1
O=C(c1ccco1)N1CCCC(c2nc(-c3ccc(S(=O)(=O)NCc4ccccc4)cc3)no2)C1 (stereo unspecified)	.	49	-11	11	.	.	.	18%	5.1	-0.2
N#Cc1cc(-c2ccccc2)cn(Cc2c(Cl)cccc2Cl)c1=O	.	7	11	0	.	.	.	-8%	?	0.3
CCCCCn1c(CN2CCN(Cc3ccccc3)CC2)nc2c1c(=O)[nH]c(=O)n2C	.	-1	13	-7	.	.	.	10%	-5.5	0.3
Cc1ccccc1NC(=O)OCc1cccnc1Oc1ccc(Cl)cc1	2.5	-8	8	17	-16	-21	6.5	-5%	-0.6	-0.2
COc1cc(OC)cc(-c2sc3ccc(OC)cc3c2-c2ccc3cc[nH]c3c2)c1	-7.8	18	.	.	-5	14	9.9	.	.	0.1
N#Cc1ccc(-c2ccco2)nc1SCc1ccccc1	.	0	8	-16	.	.	.	?	-2.3	0.0
O=C(c1cnc2n(c1=O)CCS2)N1CCN(c2ccc(Cl)c(Cl)c2)CC1	.	.	-2	1	.	.	.	-2%	0.2	0.1
Cc1cc2ncc(-c3ccccc3)nc2cc1C	1.7	.	-6	-12	36	21	-0.7	-1%	-1.5	-12
O=[N+]([O-])/C=C1\C=CC=CN1Cc1ccc(Cl)cc1	0.7	1	-6	7	-1	7	4.3	-9%	-2.7	0.2
COc1ccc(OC)c(C2CC(=O)N3CN(c4ccc(C)c(Cl)c4)CSC3=C2C#N)c1 (stereo unspecified)	5.7	-3	5	1	0	4	0.6	7%	-30	-1.2
Cc1ccc(-c2nnc(SC(C)C(=O)NCC3CCCO3)nc2-c2ccc(C)cc2)cc1 (stereo unspecified)	-8.7	2	47	1	-8	-25	1.6	-3%	.	1.8
Cc1ccccc1OCC(=O)N/N=C/c1ccccn1	1.4	-7	-24	-6	-4	-8	-1.2	31%	3.2	-0.2
C[C@@H]1CCC[C@@]2(O[C@H](CCO)C[C@@H](O)[C@@H]2O)O1	-1.9	-8	-15	-9	11	19	9.5	-3%	-4.0	0.1
O=C(CC1CC2CCC1C2)NCCc1ccc(Cl)cc1 (stereo unspecified)	1.1	85*	5	36	-3	-1	0.7	.	?	-0.2
CCN(CC)c1ccc(/C=N/NC(=O)c2ccc([N+](=O)[O-])cc2)cc1	-1.1	-5	-4	-6	-1	7	-3.4	6%	1.9	0.2
CCOC(=O)NNC1CC(=O)N(c2ccccc2)C1=O (stereo unspecified)	-5.2	-3	6	-2	13	12	-8.0	.	-1.8	-0.2
Cc1ccc(S(=O)(=O)N2CCCC(C(=O)N3CCCc4ccccc43)C2)cc1 (stereo unspecified)	.	-1	0	-9	.	.	.	-4%	-3.5	0.0
S=C(NCC1CCCO1)Nc1ccccc1 (stereo unspecified)	-2.0	.	-9	15	11	3	0.0	?	9.1	0.2
COc1cc(NC(=O)C(=O)Nc2ccc3nc4n(c(=O)c3c2)CCCCC4)cc(OC)c1OC	-3.4	1	-6	-6	8	3	-4.0	.	-1.6	0.7
CN1CCN(C(=O)CCN2C(=O)c3ccccc3C2=O)CC1	-0.1	0	-8	-16	14	10	-3.3	.	4.1	-0.3
CCN1CCc2[nH]c3ccccc3c2C1	3.9	0	-10	-9	7	19	4.3	-2%	-2.8	0.5
CCOC(=O)N1CCN(C(=O)NC23CC4CC(CC(C4)C2)C3)CC1	.	-3	-9	14	.	.	.	-2%	6.1	0.6
CC(=O)N1c2ccc(S(=O)(=O)N(C)CC(=O)Nc3cccc(C)c3)cc2CC1C (stereo unspecified)	2.5	-4	7	-4	-4	-2	-1.1	.	-0.1	1.7
O=C(COC(=O)c1cnccn1)N=c1sccn1Cc1ccccc1Cl	0.4	-6	0	-1	7	8	1.0	-6%	-4.4	0.4
CCOC(=O)COc1ccc(C(c2c(C)[nH][nH]c2=O)c2c(C)[nH][nH]c2=O)cc1	-2.0	.	-3	-5	33	25	6.1	1%	1.1	0.0
Cc1cccnc1NS(=O)(=O)c1cccc([N+](=O)[O-])c1	-3.4	0	3	-1	9	30	-6.2	27%	7.4	-0.3
CC(C)(C)n1ncc2c(=O)n(CC(=O)OCc3ccccc3)cnc21	.	5	2	-3	.	.	.	1%	4.1	-2.9
COc1ccc(/C=N/c2c(-c3ccc(OC)cc3)nc3n2CCS3)cc1	.	-6	12	-3	.	.	.	17%	-1.4	-1.0
COc1cccc(NC(=S)NCc2ccc(F)cc2)c1	5.0	1	-12	-1	4	4	1.4	.	3.0	0.5
CCOc1ccc(-c2ccc(SC)nn2)cc1	-1.8	37	4	-4	16	7	0.8	0%	-1.1	-10.0
COc1cc(NC(=O)CSc2nnnn2Cc2ccc3c(c2)OCO3)cc(OC)c1	.	10	1	3	.	.	.	?	-2.2	0.4
CCC(C)Nc1nc(OC(C(F)(F)F)C(F)(F)F)nc(OC(C(F)(F)F)C(F)(F)F)n1 (stereo unspecified)	.	4	-3	9	.	.	.	7%	0.5	0.2
CCC(=O)Nc1ccc(NC(=O)c2ccco2)c(OC)c1	.	6	-7	7	.	.	.	5%	-1.2	-1.3
O=S(=O)(NCc1ccco1)c1ccc(S(=O)(=O)N2CCCCC2)cc1	7.1	0	11	11	-1	4	-1.9	7%	-3.2	0.3
COc1ccc(CCNC(=O)CNC(=O)c2ccc(Br)o2)cc1OC	-35	0	-9	3	-9	-8	0.9	.	-5.2	-0.7
COCCCn1c(-c2ccccc2Cl)n[nH]c1=S	.	-6	-13	-8	.	.	.	-3%	?	-1.5
The results go on.
SMILES	MLL AF4-AF9 inh	Beta apoptosis	T cruzi repl	Calb FLC	Ecoli rRNA inh	Ecoli rRNA inh OD600	Ecoli rRNA inh RFP	Vif A3G	RanGTP-Impb inh	Bfl-1 A1 inh
CCN(C(=O)CSc1nc2cc(S(=O)(=O)N(CC)CC)ccc2n1CC)C1CCS(=O)(=O)C1 (stereo unspecified)	0.1	3	19	.	8	8	1.1	-2%	-2.9	0.2
CC(=O)Oc1ccc2oc(-c3ccccc3)c(C(N)=O)c2c1	.	2	7	24	.	.	.	-13%	1.7	0.0
O=C(CCN1C(=O)c2ccccc2C1=O)N1CCN(c2ccccn2)CC1	.	-5	5	47	.	.	.	19%	1.9	0.2
Cc1nc(SCC(=O)N(CC(C)C)C2CCS(=O)(=O)C2)c2ccccc2n1 (stereo unspecified)	-1.9	-11	.	.	5	9	-0.5	.	.	-0.4

High-throughput results: PubChem, several laboratories

Some of the compounds tested; the hit share may differ from the screen's.
